# Source: PubChem (National Center for Advancing Translational Sciences (NCATS))
# TRPML1 blocker – human mucolipin-1 channel inhibition | TRPML1-inducible cells, Ca2+ dye fluorescence, FDSS; stronger effect = lower value; inhibition of EC80 agonist-evoked calcium signal | activity change, negative = inhibition, % (concentration not given with the values) | 0.02% of 390,000 active; in the data active means activity change below about -50%; inconclusive means about -30% to -50%; inactive means above about -30%;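 also: stimulus is agonist 54-4 at its EC80 concentration; % is scaled to controls: 0 for no effect and ±100 for the full control effect; compound concentration not given in the record; the text of the record puts the active cut at -80%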
# Target sequence (Q9GZU1 whole entry, looked up): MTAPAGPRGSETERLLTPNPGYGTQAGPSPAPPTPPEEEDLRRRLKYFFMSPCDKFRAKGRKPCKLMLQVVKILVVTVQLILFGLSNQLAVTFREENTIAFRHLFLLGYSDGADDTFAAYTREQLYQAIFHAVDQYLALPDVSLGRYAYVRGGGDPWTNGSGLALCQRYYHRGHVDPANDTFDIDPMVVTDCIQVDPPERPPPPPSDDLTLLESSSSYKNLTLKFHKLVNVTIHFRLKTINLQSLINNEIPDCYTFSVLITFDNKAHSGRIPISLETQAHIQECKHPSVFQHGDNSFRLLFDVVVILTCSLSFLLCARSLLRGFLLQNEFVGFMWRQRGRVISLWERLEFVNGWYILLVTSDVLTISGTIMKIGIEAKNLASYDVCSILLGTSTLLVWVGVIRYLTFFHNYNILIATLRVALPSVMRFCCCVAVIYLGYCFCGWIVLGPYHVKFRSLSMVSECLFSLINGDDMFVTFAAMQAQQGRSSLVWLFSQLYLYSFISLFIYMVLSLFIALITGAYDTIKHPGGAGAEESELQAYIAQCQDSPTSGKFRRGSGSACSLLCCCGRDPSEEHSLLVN
#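 Calcium fluorescence in TRPML1-DL cells induced overnight with Tet: a 110 s read after compound pin addition, then a 110 s antagonist read after challenge with 54-4 at 4 uM final (EC80).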
# Sfp inh – blocks B. subtilis Sfp PPTase activity; Potency, µM, without a hit: max response, negative = inhibition, actives largely listed as inhibitors; AID 1490; Biochemical Sfp PPTase activity, qHTS; 3.5% of 310,000 active; Q9F4F7; active = well fitted inhibition curve with a large enough effect; inconclusive = small, poorly fitted or top-dose-only effect, or another doubt; inactive = no such curve, though single readings can be large or run the other way;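 also: the enzyme is Sfp with the accession as filed and its product quenches rhodamine fluorescence; potency is read from the fitted curve at half-maximal effect; 0% = enzyme reaction without inhibitor and -100% = no enzyme wells; top concentration of the series not given in the record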
#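 Reaction rates are the 30-min fluorescence difference (ex 525, em 598 nm) in wells containing 15 nM Sfp, 5 uM rhodamine-CoA and 12.5 uM BHQ-2-YbbR at pH 7.6 with 10 mM MgCl2.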
# ClpP mod – qHTS Assay for Activators of ClpP. ATP-dependent Clp protease proteolytic subunit (Bacillus subtilis (strain 168)), P80244. purified B. subtilis ClpP, FRET peptide cleavage, 20 min. Potency, µM (highest dose often 57.5 µM), for inactives: at the top dose activity change, negative = active. 1.9% of 340,000 active; active = well fitted falling curve with a large enough effect; inconclusive = small, poorly fitted or top-dose-only effect; inactive = no such curve, though single readings can be large or run the other way; also: potency is read from the fitted curve at half-maximal effect; the source files actives as falling curves though it sought activators and does not explain the sign; nearly all actives have a fitted effect of over 65% in size; many hits overshoot -100%
# Target sequence (P80244 whole entry, looked up): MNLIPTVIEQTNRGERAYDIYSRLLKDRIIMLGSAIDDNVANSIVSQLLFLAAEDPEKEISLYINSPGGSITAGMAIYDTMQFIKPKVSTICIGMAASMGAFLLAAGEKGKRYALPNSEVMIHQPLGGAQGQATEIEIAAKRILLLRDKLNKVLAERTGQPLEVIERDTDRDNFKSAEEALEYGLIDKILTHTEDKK
#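 FRET quenching reversal measured ClpP activation: 10 microg/mL B. subtilis ClpP at pH 8 with the FRET-FV decapeptide, read at 430 nm after 320 nm excitation. The 20-min minus 0-min signal was scaled between DMSO/no-enzyme wells and ADEP (5.8 microM final).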
# TRPV1 PAM – human TRPV1 potentiation. TRPV1-expressing cells, Fluo-8 calcium influx, capsaicin EC20 potentiation; host cell line not named in the record; control for the full effect not named in the record. 0.02% of 320,000 active. Q8NER1. AID 540277. potentiation, % at 8.33 µM; active means potentiation above 80%; inconclusive means 30% to 80%; inactive means below 30%; also: 0% is about no effect
#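 Fluo-8 calcium influx in TRPV1-expressing cells, kinetic read (ex 480/em 520 nm). Compound added and read 3 min for agonist activity, followed by capsaicin at EC20 final and 2 min further read for enhancement.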
# PINK1 expr mod – modulators of PINK1 expression; PINK1 immunofluorescence, high-content cytometry, 24 h; Potency, µM (titrated, usually from 76.6 µM), inactives show at the highest dose activation (PINK1 increase), hits mostly activators; 0.2% of 410,000 active; active = well fitted activation curve with a large enough effect; inconclusive = small, poorly fitted or top-dose-only effect; inactive = flat fitted curve, though single readings scatter; cell line not stated here;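 also: potency is read from the fitted curve at half-maximal effect; % of control where 0% means no effect; nearly all actives have a fitted effect of over 65% in size; a mitochondrial uncoupler was the plate control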
#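 Compound titrations (5 concentrations, 24 h) on a stable cell line; DMSO and CCCP controls. Endpoint: fixed-cell PINK1 immunofluorescence with mitochondrial, cell and nuclear markers, scanned by microplate cytometer.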
# Menin-MLL FL inh – displaces fluorescein MLL peptide from human menin. Fluorescence polarization, fluorescein-MLL peptide displacement from menin. FP activity change, % at 61.4 µM. 290,000 tested, under 10 active. AID 1766; inconclusive = falling polarisation curve, or a change in total fluorescence; inactive = total fluorescence flat and polarisation flat or rising; no compound was filed as active; the % refers to the polarisation; negative = inhibition;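 also: % of control where 0% means no effect; inhibitors lower the polarisation; unlabelled MLL peptide was the positive control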
# TRPML1 ag – agonists of human TRPML1 channel; Q9GZU1; TRPML1-expressing cells, Ca2+ dye fluorescence, FDSS; host cell line not named in the record; reference of the full effect not given here; activation, % (concentration not given with the values); 0.12% of 410,000 active; in the data active = activation above about 50%; inconclusive = about 30% to 50%; inactive = below about 30%; also: 0% is about no effect; the text of the record puts the active cut at 80%
#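 Kinetic FDSS Ca2+ read in Tet-induced TRPML1-DL cells (ABD Ca8 dye plus quencher, 45-90 min RT loading): baseline, then compound, then 110 s agonist window; EC80 agonist 54-4 at 4uM final added afterwards for a 110 s antagonist window.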
# An asterisk follows results filed as active; ? = inconclusive; . = no result given; & = joins results of further samples; [ ] = another dose, or the depositor's remark.
SMILES,TRPML1 blocker,Sfp inh,ClpP mod,TRPV1 PAM,PINK1 expr mod,Menin-MLL FL inh,TRPML1 ag
CC(=O)c1cccc(CN2CCN(Cc3ccc(C)cc3)C(CCO)C2)c1 (configuration not stated),-2,8%,-2.3%,-2,0.4%,0.9,0.6
CN1CC(c2ccccc2Cl)C2(COc3ccccc3C2=O)C12C(=O)Nc1ccccc12 (configuration not stated),-2,-5%,-0.2%,-7,-28%[38.3 µM],3.7,-0.1
CCN(CC(=O)Nc1ccc(OC)c(Cl)c1)CC(=O)NC(C)C,4,13%,1.3%,-9,-0.7%,-0.8,-0.5
CC(C)(C)c1ccc2c(c1)N(CC(=O)O)C(=O)CO2,29,21%,1.6%,-2,1.4%[38.3 µM],-1.4,4.0
CCOc1cc(NC(=O)C2CC2)c(OCC)cc1NC(=O)c1ccccc1OCC,-6,-19%,.,-7,1.5%,-0.4,0.6
NC(=N\N=Cc1ccccc1)/C(N)=N/N=Cc1ccccc1,-14,.,-1.0%,.,9.2%,.,-0.1
O=c1[nH]c(/C=C\c2ccc(O)c(O)c2)nc(O)c1[N+](=O)[O-],1,45µM*,.,1,1.0%,1.0,0.2
COc1ccc(-c2ccc3c(c2)C2CC3CCN2Cc2ccc(OC(F)(F)F)cc2)cc1 (configuration not stated),-30,.,-8.2%,.,?,.,1.2
CCNC(=S)N(CCc1ccc(OC)c(OC)c1)Cc1cc2cc(OC)ccc2[nH]c1=O,1,5%,.,1,2.9%,-3.0,0.2
COc1ccc(-c2nn(C)c(=O)[nH]2)cc1,-7,13%,-0.5%,3,2.5%,-1.0,-0.5
CC(C)Nc1nc(NC(C)(C)C)nc(Oc2ccc(=O)n(-c3ccccc3)n2)n1,-7,15%,42%,-3,3.9%,4.3,-1.0
COc1ccc(CN2CCNC(=O)C2CC(=O)N(C)CC2CCOCC2)cc1OC (configuration not stated),5,3%,-0.3%,-12,1.6%,3.9,-0.7
Cc1ccc2c(c1)N(CCC(=O)NC1CC1)C(=O)C(C)O2 (configuration not stated),-14,8%,-0.4%,.,4.1%[38.3 µM],-1.1,-0.5
Cc1ccc(NC(=O)COc2ncnc3sccc23)cc1S(=O)(=O)N(C)C,11,-1%,-3.7%,3,3.0%,5.3,0.3
COc1ccc(/C=C/C(=O)OCC(=O)Nc2cc3oc4ccccc4c3cc2OC)cc1,.,5%,.,1,.,2.2,.
Cc1ccc(C(=O)N2N=C(c3ccc(Br)cc3)CC2c2ccccc2O)cc1 (configuration not stated),?,6%,0.0%,-4,-2.3%,2.2,-0.8
CCC1CCCCN1C(=O)c1ccc2nc(Cc3ccc(OC)cc3)oc2c1 (configuration not stated),-8,7%,-0.1%,-2,0.0%,.,0.0
COC(=O)c1ccc(C23CC4(C2)[C@H](CN(C)[C@@H]4c2ccccc2)C3c2ccc(Cl)nc2)cc1 (some centres not stated),7,-16%&-26%,-16%,?,-0.1%,-0.3&3.1,3.7
CCC(C(=O)Nc1ccc([N+](=O)[O-])cn1)c1ccccc1 (configuration not stated),-18,-1%,-2.7%,-13,0.6%,2.0,3.2
Cc1ccc(-n2nc(-c3ccco3)cc2C(=O)O)c(C)c1,-5,10µM*,-0.9%,-25,1.7%,?,-1.2
COc1cccc(-c2nc(-c3cccc(C)c3)nc3cc(Cl)ccc23)c1,.,.,1.3%,.,2.3%,.,-0.1
O=C(NC(c1ccc(-c2ccccc2)cc1)c1cnccn1)C1CCN(Cc2ccc(Oc3ccccc3)cc2)CC1 (configuration not stated),.,.,-1.5%,.,3.0%,.,4.3
CN(C)c1ccc(NC(=O)c2cccc(N3C(=O)CCC3=O)c2)cc1,-8,-3%,-2.1%,20,.,7.1,0.3
COc1ccc(CCNC(=O)c2ccc(SC)cc2OC)cc1,-4,-5%,.,-20,0.7%,-3.5,1.2
CN(C)c1nc(Oc2ccc(OCCOc3ccccc3)nn2)nc(N(C)C)n1,25,8%,-2.6%,-8,1.1%,3.5,-0.2
Cc1ccc(NC(=O)C(CC(C)C)NC(N)=O)cc1 (configuration not stated),-1,6%,.,4,0.0%,5.0,0.9
N=C1c2ccccc2CN1c1ccc(S(=O)(=O)N2CCCCC2)cc1,-19,18%,1.0%,-2,4.0%,-8.8,-1.2
COc1ccc(CN(C)CCc2ccccn2)cc1OC,5,50µM*,-0.2%,-6,-0.2%,-4.5,-0.4
O=C(OCc1ccccc1)Oc1cncc(C(=O)O)c1,38,25%,-7.2%,-2,2.3%[38.3 µM],-10,0.2
COc1ccc(N2CCN(CCCNC(=O)C3CCN(S(=O)(=O)N4CCOCC4)CC3)CC2)cc1,5,14%,.,3,0.3%,-0.2,0.9
CC1O[C@@H](O[C@H](C)CC/C=C/C(=O)O)C(O)C[C@H]1O (some centres not stated),-9,.,0.7%,5,2.4%,.,-0.6
Nc1nonc1/C(=N/O)N1CCN(CCO)CC1,-15,21%,0.3%,-8,-0.4%,1.1,-1.3
CCc1nc2sccc2c(=O)n1N,20,16%,.,2,-0.2%,1.8,2.1
COc1ccc(S(=O)(=O)N2CCOCC2)cc1C(=O)N(C)Cc1ccco1,2,.,0.4%,.,3.3%,.,-0.6
CSc1nsc(SCCN2C(=O)c3ccccc3C2=O)n1,4,4%,-2.2%,0,-2.8%,-1.8,1.8
COc1cccc(NC(=O)c2sc(Cl)nc2C)c1,-2,11%,.,2,-1.3%,-1.3,-0.5
O=C(COc1ccc(Cl)cc1)OCc1cc(=O)n2nc(-c3cccs3)sc2n1,-7,.,?,.,-0.9%,.,-0.5
O=C(Nc1ccc(Cl)cc1)N1CCN(c2ccccc2)CC1,-1,-10%,0.3%,-13,0.1%,3.0,-0.2
O=C(CCCCC(=O)NC1CCCC1)NC1CCCC1,7,20%,0.9%,9,1.7%,2.2,0.6
CCCN1CCCC[C@H]1C(=O)Nc1c(C)cccc1C,8,4%,-0.4%,.,0.0%,0.5,-0.6
Cc1ccccc1OCC(=O)NCC(=O)N/N=C/c1cccc([N+](=O)[O-])c1,.,12%,.,4,.,-2.3,.
CCC(Sc1nc(N)c(NC(=O)c2ccc(OC)c(OC)c2)c(=O)[nH]1)C(=O)OC (configuration not stated),3,-8%,-0.1%,.,1.2%,4.6,-0.5
O=C1CN(C(=O)/C=C/c2ccc(Cl)cc2)c2ccccc2N1,-16,-6%,.,-2,1.2%,0.3,-0.5
O=C(CNS(=O)(=O)c1c(F)cccc1F)NC1CCCc2ccccc21 (configuration not stated),9,.,.,.,-1.3%,.,-0.3
CC(Oc1ccc(Br)cc1)C(=O)NCC(c1cccs1)N1CCOCC1 (configuration not stated),-6,.,0.4%,6,-0.6%,.,-0.3
CN1C(=O)c2cccc3c(N)ccc(c23)C1=O,-5,10%,-1.1%,-17,-1.2%,?,86*
O=S(=O)(c1ccccc1)N1CCC(n2cnc3ccccc32)CC1,6,2%,.,-1,0.0%,-7.4,0.2
FC(F)(F)c1ccccc1-c1ccc2nncn2c1,.,.,-17%,.,-0.3%,.,-0.1
CC(=O)Nc1ccc(S(=O)(=O)Nc2nc(-c3ccc(C(C)(C)C)cc3)cs2)cc1,32,-1%,-1.0%,-5,-0.2%,2.9,-0.4
O=[N+]([O-])c1ccc(C(O)CN=Cc2ccc(O)cc2O)cc1 (configuration not stated),3,1%,.,8,23%,1.3,-0.5
CCC1CCCCN1C(=O)Nc1cc(Cl)ccc1OC (configuration not stated),-4,-3%,.,-7,2.9%,-0.8,0.1
O=C(c1ccc(F)cc1)n1c(=S)nc2ccccn21,14,?,-1.5%,-1,-2.5%,2.7,1.1
CN1C(=O)N(S(=O)(=O)c2ccc(F)c(F)c2F)C(=O)C1(C)C,12,-5%,-0.9%,25,-0.1%,3.3,-0.3
O=C(NCc1cccc(Cl)c1)c1ccc(N2CC3CC(C2)c2cccc(=O)n2C3)c(NC(=O)c2cccnc2)c1 (configuration not stated),13,9%,-0.3%,3,-0.8%,-2.2,0.0
CCCCC(c1nnnn1Cc1ccco1)N1CCN(c2nc3ccccc3s2)CC1 (configuration not stated),17,?,-5.7%,2,1.0%,-5.0,11
FC(F)(F)c1ccc(CSc2ccccn2)cc1,-7,0%,.,-29,3.4%,-0.4,-0.8
Cc1onc(C(N)=O)c1C(=O)Nc1ncc(C(F)(F)F)cc1Cl,-27,10%,.,12,-4.2%,1.3,0.4
Cc1cccn2c(=O)c(C(=O)NCCc3ccccc3)cnc12,12,.,4.1%,.,2.0%,.,1.6
COc1cccc(NC(=O)C2CCCC2)c1,16,.,0.8%,?,-1.5%,.,-0.3
CN(CC(=O)NC1CCCCCCC1)S(=O)(=O)c1cnc[nH]1,-1,19%,-0.4%,1,-1.9%,-5.5,0.2

# New compounds follow
SMILES,TRPML1 blocker,Sfp inh,ClpP mod,TRPV1 PAM,PINK1 expr mod,Menin-MLL FL inh,TRPML1 ag
COc1ccc(C(=O)Nc2nc3ccccc3[nH]2)cc1S(=O)(=O)N1CCCC1,20,36%[activator],2.6%,16,-1.0%,8.4,-0.1
O=c1[nH]nnc2c1ncn2C1OC(CO)C(O)C1O (configuration not stated),.,.,-0.7%,.,-1.1%,.,-0.6
Cc1ccc(C(C(=O)NC2CCCC2)N(C(=O)c2csnn2)C2CC2)cc1 (configuration not stated),3,8%,.,3,-2.6%,-5.1,0.2
Cc1ccccc1N1CC(=O)Nc2c(oc3nc(-c4ccccc4)cc(C)c23)C1=O,14,17%,-12%,-3,5.5%,5.5,1.0
CCN1CCN(S(=O)(=O)c2ccc(Cl)c(C(=O)Nc3ccccc3N3CCOCC3)c2)CC1,-5,.,-3.7%,13,-3.9%,.,0.5

# In the list so far, these contain an aryl thioether with sulfur outside any ring:
SMILES,TRPML1 blocker,Sfp inh,ClpP mod,TRPV1 PAM,PINK1 expr mod,Menin-MLL FL inh,TRPML1 ag
COc1ccc(CCNC(=O)c2ccc(SC)cc2OC)cc1,-4,-5%,.,-20,0.7%,-3.5,1.2
CSc1nsc(SCCN2C(=O)c3ccccc3C2=O)n1,4,4%,-2.2%,0,-2.8%,-1.8,1.8
CCC(Sc1nc(N)c(NC(=O)c2ccc(OC)c(OC)c2)c(=O)[nH]1)C(=O)OC (configuration not stated),3,-8%,-0.1%,.,1.2%,4.6,-0.5
FC(F)(F)c1ccc(CSc2ccccn2)cc1,-7,0%,.,-29,3.4%,-0.4,-0.8
